CSC inhib: blocks cancer stem cells | inhibition, % at 7.5 µM | AID 2717 | hit rate 1.1% among 300,000 | cancer stem cell-like cells viability, luminescence;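 active = mean at 75% or more and at least half the replicates too; inconclusive = mean and replicates disagree; tested in HMLE shEcad cells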;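 also: 0% = median of negative and 100% = median of positive control wells; the first replicate is given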
UUG fidelity: yeast start codon fidelity modulation; S. cerevisiae UUG-firefly luciferase reporter, luminescence/redox ratio; hit rate 0.13% among 350,000; activity score, % at 18.7 µM; AID 602363;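 active = replicate mean at a twofold rise or more, about +100% in these data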;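 also: firefly luciferase made from a UUG start codon reports start codon fidelity; reporter light over untreated wells divided by growth signal over untreated wells; some hits fall short of that in this replicate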
MT1-MMP act inh: inhibitors of human MT1-MMP activation; HT1080 RFP-PRO-GFP cells, GFP/RFP ratio fluorescence, overnight; percent of plate control window, DMSO zero; GFP/RFP ratio change, % at 20 µM; hit rate 0.061% among 360,000; AID 651647;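 active = GFP/RFP ratio change of at least 30% with cell ATP level not reduced by more than half and red fluorescence within 50% of control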; also: strong numbers were not always called active
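Assay system: HT1080 cells carrying an RFP-PRO-GFP reporter | Dosing: Single dose of 20 µM compound, 1% DMSO final | Incubation: Cells overnight before dosing, compound overnight, 37 °C, 5% CO2 | Evaluation: GFP/RFP fluorescence ratio | Control set: DMSO and RFP-L50D-GFP cell wells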
Rce1 inhib: blocks yeast Ras-converting enzyme; calls only; hit rate 0.27% among 290,000; AID 2563; yeast membranes, quenched prenylated peptide cleavage fluorescence; Q03530;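 active = fall in fluorescence gain of 50% or more versus controls, with final raw signal at or below 3038400; inconclusive = same 50% fall but final raw signal above 3038400; inactive = fall in fluorescence gain under 50%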;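 also: plate controls were neutral control wells for no effect and wells lacking membranes for full effect; tested at 10 µM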
Target sequence (Q03530 whole entry, looked up): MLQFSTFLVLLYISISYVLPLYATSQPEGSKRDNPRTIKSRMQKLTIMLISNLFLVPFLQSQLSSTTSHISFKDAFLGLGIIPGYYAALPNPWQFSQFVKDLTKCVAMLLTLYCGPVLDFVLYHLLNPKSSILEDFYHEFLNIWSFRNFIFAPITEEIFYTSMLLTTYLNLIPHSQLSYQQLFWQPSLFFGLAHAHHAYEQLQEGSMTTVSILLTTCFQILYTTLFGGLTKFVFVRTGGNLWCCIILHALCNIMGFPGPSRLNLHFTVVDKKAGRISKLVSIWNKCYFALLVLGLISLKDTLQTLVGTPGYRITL
Env fusion inh: inhibitors of HIV Env-mediated cell fusion; hit rate 1.1% among 360,000; HeLa-JRFL Env/CEM21 cell fusion, luciferase; inhibition, % at 12.3 µM; AID 651610;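 active = mean replicate inhibition score of at least 50 and every replicate individually at or above 50; inconclusive = only one of the two criteria met; inactive = mean below 50 and not all replicates reaching 50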;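 also: 0% = plate neutral controls and 100% = maraviroc near 300 nM; one replicate is shown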
eIF4H FP inh: inhibitors of RNA binding by human eIF4H. eIF4H fluorescence polarization binding assay. AID 2012. hit rate 0.94% among 290,000. inhibition, % at 35 µM;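 active = 50% or more with normal probe brightness, or confirmed in later tests; inconclusive = above 50% with abnormal brightness, or retests that disagree; inactive = below 50% or failed in later tests; about a fifth of its hits are not listed in these tables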;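 also: calls also rest on retests at 20 µM and on dose response follow-up; 0% = protein and probe with vehicle and 100% = probe without protein; strong numbers were not always called active; many hits fall short of the cut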
PABP FP inh: PABP-poly(A) binding inhibition; PABP-poly(A) RNA binding, fluorescence polarization; inhibition, % at 35 µM; P11940; hit rate 1% among 290,000;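 active = 50% or more with normal probe brightness, or confirmed in later tests; inconclusive = above 50% with abnormal brightness, or retests that disagree; inactive = below 50% or failed in later tests; about a fifth of its hits are not listed in these tables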;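 also: calls also rest on retests at 20 µM and on dose response follow-up; controls were probe without protein and protein plus probe with vehicle; some compounds called inactive have numbers as strong as hits; many hits fall short of the cut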
MT1-MMP act inh RFP: second read-out of MT1-MMP act inh, no call of its own (marks repeat the call); RFP signal change, %; measured here: RFP expression control read;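 0 = vehicle wells; hits needed this value within 50% of zero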
* marks the source's active call; other numbers are inactive results; i = inactive; ? = inconclusive; / = no result given; & = joins results of further samples. Only part of the results is shown. The share of hits here may be higher or lower than overall.

Sequence of screens: CSC inhib	UUG fidelity	MT1-MMP act inh	MT1-MMP act inh RFP	Rce1 inhib	Env fusion inh	eIF4H FP inh	PABP FP inh
Cc1cc(Cl)cc(C)c1OCCCCn1ccnc1
 : 20	-1	4	-7	i	28	-13	7
CC(C)c1ccc(N(CC(=O)NCc2ccco2)C(=O)CCC(=O)Nc2ccccn2)cc1
 : -13	-4	-4	-5	/	7	10	3
CC1(C)CC(=O)c2cnc(NC(=O)CSc3nc4ccccc4o3)nc2C1
 : /	-22	1	6	i	/	6	5
CCCCn1c(SCN2C(=O)c3ccccc3C2=O)nc2cc(S(N)(=O)=O)ccc21
 : /	-2	2	7	i	/	2	-1
O=C(COc1coc(CN2CCc3ccccc3C2)cc1=O)Nc1ccc([N+](=O)[O-])cc1
 : -5	-36	-4	-13	i	/	/	/
CC1=CC(C)=Nc2ccc(C)cc2N1
 : -11	-1&3	1&8	9&1	i	-66	9&-7	5&19
CCN1CCN(c2ccc(S(=O)(=O)N3CCOCC3)cc2NC(=O)CC(NC(C)=O)c2ccccc2)CC1 (configuration not stated)
 : /	-6	0	1	/	5	/	/
CCN(CC)S(=O)(=O)c1cc(NC(=O)CSCc2c(C)noc2C)ccc1C
 : -14	-11	-1	-10	/	35	/	/
Cc1cc2ncn(CC(C)C)c2cc1C
 : -13	/	3	3	i	11	-8	-13
O=C1C2CCC(C2)C1CN1CCOCC1 (configuration not stated)
 : /	-13	2	5	/	-17	/	/
O=C(NNC(=O)[C@H]1CC=CC[C@H]1C(=O)O)c1ccc(Cl)cc1Cl
 : 8	/	2	6	i	3	-7	-2
N/C(COc1ccc(Cl)cc1Cl)=N\NS(=O)(=O)c1ccccc1
 : -9	-17	-6	-1	i	-46	-10	-4
CCc1ccccc1N(CC(=O)NCc1ccco1)C(=O)c1snc(C(N)=O)c1N
 : -7	-5	-1	-3	i	/	20	9
O=C(C1CCCN(S(=O)(=O)c2ccc(F)cc2)C1)N1CCCC1 (configuration not stated)
 : -1	-6	3	6	i	/	8	8
O=C(Nc1cnn(Cc2ccc(Cl)cc2)c1)C1CCCC1
 : -10	-22	3	-2	i	16	-3	-4
Cc1cc(-c2cc(C(=O)Nc3ccccc3)on2)nc(NCC2CC2)n1
 : -15	-24	-2	-7	i	4	/	/
COc1ccc(C=CC(=O)c2ccc(OC)c(OC)c2)cc1O
 : /	2	8	0	/	0	/	/
Clc1ccc(-c2cn3c(n2)-c2ccccc2C3)cc1Cl
 : -3	-8	15	-8	i	/	10	-5
COc1cccc(NC(=O)CSc2nnc(Cn3cnc([N+](=O)[O-])n3)n2C)c1
 : -4	-4	4	0	i	-4	-9	-1
O=C(OCC(=O)N1CCC(Cc2ccccc2)CC1)c1ccc(CO)cc1
 : /	-4	9	0	/	3	/	/
COCc1nnc(NC(=O)c2cccc(NC(=O)c3ccccc3)c2)s1
 : 27	-20	6	8	i	/	-8	-3
CN(C)CCCN(C(=O)c1ccc(S(=O)(=O)N2CCCCCC2)cc1)c1nc2cc3c(cc2s1)OCCO3
 : -8	18	-3	-4	i	-6	/	/
O=C(CSc1ccc(-c2ccccc2)nn1)NCc1ccco1
 : -18	-5	1	0	i	-30	0	-2
CC(C)Nc1nc(Nc2ccccc2Cl)c2sccc2n1
 : /	-14	-1	-8	/	3	/	/
COc1cc(C(=O)Nc2cccc(C(C)=O)c2)cc(OC)c1OC
 : -8	/	6	3	i	-6	2	-1
COc1ccccc1OCC(=O)N1CCCC(Nc2cccc(F)c2)C1 (configuration not stated)
 : 0	-12	-1	0	i	-7	1	5
CC(c1cccnc1)N(C(=O)Nc1ccccc1)C1CCCCC1 (configuration not stated)
 : -4	-6	-1	2	i	-13	-1	-7
CO/N=C/c1ccc(Oc2ccc([N+](=O)[O-])cc2[N+](=O)[O-])c(OC)c1
 : -6	/	6	-6	i	/	2	17
Cc1cccc(NC(=O)N2CCN(Cc3ccc(Cl)cc3)CC2)c1
 : -2	/	10	-2	i	31	1	-36
COc1ccc2[nH]c(=O)c(C(c3nnnn3C3CCCC3)N(C)C3CCCCC3)cc2c1 (configuration not stated)
 : -1	10	-10	-12	/	-19	-2	7
CCOC(=O)c1ccc(NC(=O)Oc2ccccc2)cc1
 : -2	-22	5	6	i	0	-3	6
NC(=O)c1nsc(C(=O)N(CC(=O)NC2CCCC2)c2cccc(C(F)(F)F)c2)c1N
 : -6	5	2	1	i	20	2	-5
O=C(Nc1nc2c(F)c(F)c(F)cc2s1)c1ccco1
 : 6	12	0	-1	i	-36	-4	4
COc1c(Cl)ccc(Cl)c1C(=O)NC(=S)N1CCOCC1
 : -10	-15	2	5	i	10	0	-5
O=C(CCSc1ccccn1)Nc1ccc(Br)cc1
 : -10	/	3	7	i	/	13	-2
N#Cc1ncc(Cl)c2ccccc12
 : -3	/	-2	0	i	5	-12	0
Cc1ccc(C(=O)O/N=C(\N)c2nonc2N)cc1
 : -11	-78	-1	0	i	-40	-1	-11
CCN(CC)c1nc(Nc2ccc(Cl)cc2)nc(OCC#N)n1
 : 1	/	-2	-4	i	/	-12	0
COc1ccc(OC)c(CC(NC(C)=O)C(=O)NC2CCN(c3cc(C)nc4ncnn34)CC2)c1 (configuration not stated)
 : 1	/	/	/	i	-1	-2	-12
CC(=NCCN1CCNCC1)C1=C(O)CC(C)(C)CC1=O
 : /	-11	-2	1	i	/	1	-6
CCOC(=O)C(C)Sc1nnc2n1C(C)(C)Cc1ccccc1-2 (configuration not stated)
 : -17	-7	2	-3	i	-18	-10	-14
COC(=O)c1sc2nc(SCc3cccc(Cl)c3)n(N)c(=O)c2c1C
 : 1	/	2	-1	i	-6	-9	-4
Cc1cc2oc(C(=O)Nc3c(C)n(C)n(-c4ccccc4)c3=O)c(C)c2cc1Cl
 : 5	/	6	-8	i	/	1	-8
CC1CCc2sc(C(=O)NN)cc2C1 (configuration not stated)
 : /	/	1	3	i	-9	-2	9
CCn1cc(C(=O)O)c(=O)c2cc(F)c(N3CCN(C(=S)NC(=O)c4cccc(C)c4)CC3)cc21
 : -6	/	-1	-6	i	-19	21	-1
S=C(NCCc1ccccc1)N1CCC2CC1c1cc(-c3ccc4c(c3)OCO4)ccc12 (configuration not stated)
 : /	-15	6	-30	/	12	/	/
Cc1ccc(Nc2nc(NCC3CCCO3)nc(N)c2[N+](=O)[O-])cc1 (configuration not stated)
 : -26	/	-2	0	i	-48	1	-10
Cc1c(NC(=O)c2c([N+](=O)[O-])cnn2C)c(=O)n(-c2ccccc2)n1C
 : -2	-20	-3	0	i	-2	4	-1
O=C(COC(=O)c1c2c(nc3ccccc13)CCCC2)Nc1ccc2c(c1)OCO2
 : 13	-5	0	-4	i	/	-5	-2
Cc1ccccc1-n1c([C@@H]2C[C@H]2c2ccccc2)n[nH]c1=S
 : -22	-9	-4	1	i	-10	-1	6
Cc1ccc(/C=C/c2ccc(N(C)C)cc2)[n+](C)c1
 : 12	-7	-126	5	i	24	?	?
CN1/C(=C/C(=O)c2cccs2)Sc2ccccc21
 : -9	-17	10	5	i	-353	0	0
CC(=O)Nc1ccc(N=Nc2ccc(O)cc2)cc1
 : -2	/	3	-5	i	-54	-9	1
Cc1nc(SCC(=O)NC2CC2)c2c(C)c(C)sc2n1
 : /	-15	2	-2	i	-1	-7	2
O=C(/C=C/c1cccc([N+](=O)[O-])c1)N1CCN(Cc2ccccc2)CC1
 : -4	-1	1	2	i	-7	-2	-6
CCC1C(=O)NCCN1C(=O)c1ccc2nc(Cc3cccc(Cl)c3)oc2c1 (configuration not stated)
 : -7	-6	2	-7	i	-147	13	-1
CC(C)n1cnc2c(NCc3ccccc3)cc(Cc3ccc(F)cc3)cc21
 : 129*	-13	-4	-4	/	11	/	/
Cc1ccc(NC(=O)Nc2ccc(F)cc2)nc1
 : -6	-4	3	-5	i	/	5	4
COc1ccc(OCC(=O)Nc2ccc(N3CCOCC3)c(Cl)c2)cc1
 : 1	5	2	5	/	-21	7	0
Cc1nc(-c2ccccc2)sc1C(=O)Nc1ccccc1F
 : 1	3	-5	-4	i	-9	-6	-6

The listing continues:
Sequence of screens: CSC inhib	UUG fidelity	MT1-MMP act inh	MT1-MMP act inh RFP	Rce1 inhib	Env fusion inh	eIF4H FP inh	PABP FP inh
O=S(=O)(Nc1nc2ccccc2nc1Cl)c1cccc(C(F)(F)F)c1
 : 5	-20	-3	-12	/	11	9	1
O=C(CCCSc1nc2ccccc2[nH]1)NCc1ccccc1
 : /	-20	-4	3	i	4	2	-5
Cc1ccc(C)c(NC(=O)COC(=O)CCNC(=O)c2ccco2)c1
 : -19	-13	1	3	/	/	/	/
Cc1cc(C(=O)N2CCCC(N3CCN(c4ccc(F)cc4)CC3)C2)c(C)o1 (configuration not stated)
 : -7	-12	2	-6	i	5	-8	-1
COc1ccc(C(CNC(=O)C(C)c2ccc3cc(OC)ccc3c2)N(C)C)cc1 (configuration not stated)
 : 4	-14	-2	-3	i	17	-14	-2
O=C(O)CSCCc1ccccn1
 : 5	-4	22	-4	i	/	-3	16
COCCn1c(=O)[nH]c(=O)c2c1nc(-c1cc(Br)c3c(c1)OCO3)n2Cc1ccccc1
 : -7	/	-5	-2	i	-11	6	-16
Cc1nnsc1SCCNC(=O)c1ccc(F)cc1
 : -5	/	6	4	i	/	2	-3
Cc1ccc(S(=O)(=O)[N-]c2nc3ccccc3nc2-n2cc[n+](CCC(C)C)c2)cc1
 : -18	-11	-3	0	i	/	-3	-14
CCOc1ccccc1N1CCN(C(=O)c2cc(-c3cc(OC)ccc3OC)nc3ccccc23)CC1
 : 19	-18	-10	-8	i	20	-5	7
O=C(Nc1ccc2c(c1)nc1n2CCOC1)c1ccco1
 : -10	-41	0	6	i	-30	-5	-6
NS(=O)(=O)c1ccc(NN=C2CCN(Cc3ccccc3)CC2)c([N+](=O)[O-])c1
 : -13	/	-4	2	i	4	-6	7
CC(C)(C)c1ccc(C(=O)NCC(=O)OCc2ccc([N+](=O)[O-])cc2)cc1
 : -19	/	0	1	i	30	1	13
Cc1cccn2c(CN(C)CC3Cc4ccccc4O3)c(C(=O)N3CCCCC3)nc12 (configuration not stated)
 : -6	0	-7	-6	i	-3	-5	2
Cc1cccn2c(=O)c3cc(C#N)c(=N)n(CCCN4CCOCC4)c3nc12
 : 6	-24	2	5	i	/	/	/
COc1ccc(S(=O)(=O)N2CCOCC2)cc1C(=O)N(C)Cc1ccccc1F
 : /	-3	0	-3	/	-7	/	/
O=C(c1cccnc1)N1CCN(Cc2ccccc2Br)CC1
 : -19	-13	-3	-5	i	/	-9	32
O=C1/C(=C\c2ccc(O)cc2)SC(=S)N1/N=C/c1ccc(O)cc1
 : 6	1	-93	15	i	11	83*	53*
CC(C)c1nnc(NC(=O)CCC(=O)N2CCC(Cc3ccccc3)CC2)s1
 : -10	-3	1	-5	i	-1	1	14
CCCCN1CCNC[C@H]1Cc1ccc(O)cc1
 : -4	-14	4	0	i	-12	/	/
N#C/C(=C(/O)c1ccccc1F)c1nc2cc(C(F)(F)F)ccc2s1
 : 18	/	-5	-6	i	-7	-7	0
CCC(=O)c1ccc(N2CCN(C(=O)c3ccc(Br)cc3)CC2)c(F)c1
 : 20	/	12	-6	i	-37	-8	7
COc1ccc(CNC(=O)C2CCN(c3nc(OC)nc(OC)n3)CC2)cc1
 : -10	-3	6	-3	i	/	1	1
CC(=O)Nc1ccc(NC(=O)COc2ccccc2C(=O)Nc2cccc(Cl)c2Cl)cc1
 : /	/	-3	-1	i	14	-6	5
O=C(CNC(=O)Cc1ccccc1)NCC(=O)OCC(=O)c1ccccc1Cl
 : -1	-9	-1	7	i	/	-11	6
